# Sa RN4220 lethal: S. aureus RN4220 growth inhibition | OD600, 16 h | inhibition, % (test concentration not listed) | 330,000 compounds, 0.33% hits;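 active = z-score of -3 or lower and OD600 up to 0.18 on both plates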;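 note: plate controls were untreated cells for no effect and reference antibiotic for full effect; stock transfer was 100 nL into about 80 µL; one replicate is shown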
# BJeLR lethal: BJeLR cell viability loss | BJeLR (HRASV12) viability, CellTiter-Glo ATP luminescence, 48 h; reference of the scale not given here | inhibition, % (concentration not given with the values) | 300,000 compounds, 0.17% hits;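 active = replicate mean above 50%; inconclusive = above 50% but judged a plate artefact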;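 note: 50 nL library stock added to about 25 µL; numbers are from one replicate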
# Mtb hypoxia rep: Mtb hypoxia fluorescent reporter inhibition | fluorescence inhibition, % (no concentration beside the values) | 300,000 compounds, 0.1% hits | M. tuberculosis hypoxia-regulated fluorescent reporter, fluorescence;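 active = 35 to 45% if threefold the growth effect, above 45% if 1.5-fold the growth effect; inactive = the rest, general growth blockers included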;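 note: wells of about 50 µL received 100 nL stock; 0% = vehicle wells and 100% = reference inhibitor wells; whole bacteria with a GFP reporter of the hypoxia response; strong numbers were not always called active; many hits fall short of the cut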
# Sa ugtP lethal: kills S. aureus RN4220 lacking UgtP. S. aureus RN4220 ugtP deletion, OD600 growth, 16 h; some inactives read as strong as hits. growth inhibition, % (no concentration beside the values). 330,000 compounds, 0.54% hits. AID 1259309;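 active = z-score under -3 and OD600 up to 0.15 on both plates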;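 note: plate controls were untreated wells for no effect and antibiotic for full effect; wells of about 80 µL received 100 nL stock; the first replicate is given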
# Autofluor counter: flagged as autofluorescent in microsphere protease counterscreen; AID 624483; 360,000 compounds, 3.1% hits; fluorescence intensity (test concentration not listed); compound autofluorescence counterscreen, microsphere flow cytometry; stronger effect = higher value;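 active = at least 3 SD above the mean of all compounds, about 16000 in these data; inconclusive = too few beads counted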;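 note: 100 nL of 1 mM stock went into each well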
# PrP 5UTR inh: inhibition of PrP 5' UTR reporter expression | cell-based PrP 5' UTR mRNA reporter, plate reader | inhibition, % (no concentration beside the values) | 340,000 compounds, 0.35% hits | AID 488862;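 active = every replicate at 50% or more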;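 note: 0 = median of the neutral control wells; tested in H4 reporter cells; numbers are from one replicate; inactives centre near -14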
# Mtb hypoxia rep growth: further read-out of Mtb hypoxia rep, marked with its call; growth inhibition, %; measured here: M. tuberculosis growth (absorbance);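 0% = vehicle and 100% = reference antibiotic; read after six days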
# * hit, by the source's call; ? = inconclusive; / = not tested or not shown.
# The line under a structure holds: Sa RN4220 lethal, BJeLR lethal, Mtb hypoxia rep, Mtb hypoxia rep growth, Sa ugtP lethal, Autofluor counter, PrP 5UTR inh
COc1cccc(/C=N/n2cncn2)c1OCC#N
    /, -10.4, /, /, /, 3441, -19.4
COCCOc1ccc(C(F)(F)F)cc1Nc1nc2ccccc2o1
    -10.4, -4.4, /, /, -5.8, 2530, -53.6
CC(Oc1ccccc1)C(=O)N/N=C/c1ccccn1 (configuration not stated)
    /, 11.7, /, /, /, 2720, -5.6
O=C(NCc1nc(-c2ccc(Cl)cc2)no1)c1ccc2c(c1)OCO2
    -2.0, 5.8, 2.6, 4.3, 2.2, 4183, -37.5
COc1cccc(CN(C)C(=O)c2ccc(NC(=O)CC3SC(N4CCCC4)=NC3=O)cc2)c1OC (configuration not stated)
    -3.6, -2.6, 0.1, 2.9, 2.5, 6233, -5.2
CCCCn1c(N)c(N(Cc2ccccc2OC)C(=O)COc2ccccc2C#N)c(=O)[nH]c1=O
    -0.5, 8.6, 5.9, -2.2, -1.7, 4117, -11.7
O=C(CS(=O)(=O)c1ccc(F)cc1)N1CCN(c2ccccc2)CC1
    3.1, -5.5, -0.2, 3.9, 3.6, /, -25.7
COc1cccc(NC(=O)c2cccnn2)c1
    -1.6, -10.4, -6.6, -3.5, -5.3, 3830, -17.1
O=C(COc1ccccc1[N+](=O)[O-])N(Cc1cccc(Br)c1)C1CCS(=O)(=O)C1 (configuration not stated)
    6.8, 9.9, 3.7, -5.0, 6.8, 5258, 1.3
COc1ccccc1CC(=O)N(Cc1ccccc1)c1ccc(C)cc1
    8.3, -10.1, 15.9, -1.5, -1.1, ?, -11.1
CC(C)Oc1ccc(C(=O)Nc2ccccc2N2CCCC2)cc1
    2.1, -4.9, 12.8, 16.5, -0.1, 5348, -2.7
CCC(CC)C(=O)Nc1ccc([N+](=O)[O-])cn1
    -1.4, -0.7, -4.2, -3.8, 3.9, 2176, -10.9
Cc1[nH]c(=O)[nH]c(=O)c1S(=O)(=O)N1CCC(C(=O)N2CCN(c3cccc(C(F)(F)F)c3)CC2)CC1
    7.3, 3.5, 6.4, 4.9, -3.6, 4830, -2.8
Cn1c(SCC(=O)NNC(=O)Cc2ccccc2)nnc1-c1ccccc1
    4.2, 1.6, 11.7, -5.9, 5.6, 2567, -42.7
Cc1ccc(CC2CC(=O)N(c3nc4ccccc4s3)C2=O)cc1 (configuration not stated)
    2.3, -2.6, 5.2, -6.4, 6.2, 6505, -19.8
Cc1cc(C)cc(NC(=O)CC2Oc3ccc(C)cc3NC2=O)c1 (configuration not stated)
    7.9, -2.4, 12.9, -0.8, -1.5, 3879, -5.2
CSc1ccccc1NS(=O)(=O)c1ccc2c(c1)OCCO2
    10.7, -3.8, 2.6, -1.8, 3.0, 20835*, -11.4
Cc1cccc(NC(=O)CS(=O)(=O)Cc2ccccc2)n1
    6.3, -7.4, /, /, 2.0, 4384, 0.4
O=C(CNC(=O)C1COc2ccccc2O1)N/N=C\c1ccccc1Cl (configuration not stated)
    /, 8.6, /, /, /, 5235, -5.7
COc1ccc(-c2noc(CN(C(=O)c3ccc4c(c3)OCO4)C(C)C)n2)cc1
    2.5, 0.0, 19.2, 0.2, 3.5, 4764, -12.4
CC(C)(CO)NCc1c(OCc2ccc(Cl)cc2)ccc2ccccc12
    -1.4, 3.0, 4.9, 4.5, -22.5, 3364, 11.8
COC(=O)C/C(N)=C(\C#N)C(=O)OC
    3.9, -6.1, 2.8, -1.7, 15.6, 6239, -8.3
O=C(COc1ccccc1Cl)NNC(=O)c1cc(S(=O)(=O)N2CCOCC2)ccc1N1CCCC1
    1.5, -1.9, 5.0, -1.0, 1.6, 6137, -5.4
O=C(NCCCO)c1ccc2[nH]c3ccccc3c2c1
    1.7, -7.4, 7.0, 8.0, -3.1, 2367, -25.3
COc1cc(C(=O)NCCOc2ccccc2C)cc(OC)c1OC
    1.2, 5.8, 21.2, 10.9, 3.3, 3456, -13.3
C/C(=N\Nc1nncc2ccccc12)c1ccc(Cl)c([N+](=O)[O-])c1
    /, -3.0, /, /, /, 3372, -45.7
O=S(=O)(c1cccc(NC(=S)N2CCN(c3ccccc3)CC2)c1)C(F)F
    6.0, -3.6, 5.6, -3.8, 13.6, 2748, -16.6
Nc1cc(N)nc(SCC(=O)NCCC2=CCCCC2)n1
    0.1, 9.5, 5.9, 0.0, 3.2, /, -23.9
Cc1cc(NC(=O)COC(=O)c2cc3c(s2)CCC(C)C3)no1 (configuration not stated)
    5.0, 0.8, 6.6, 7.3, 2.4, 4523, -11.4
COc1ccc(S(=O)(=O)NNC(=O)c2ccc([N+](=O)[O-])cc2)cc1
    4.3, -5.2, -6.7, 3.0, 5.6, 4114, 5.7
O=C(c1ccc(C(F)(F)F)cc1)C1CCCN(C(=O)CCN2CCCO2)C1 (configuration not stated)
    3.5, 0.8, 8.8, -1.5, -4.2, 2786, -28.6
COc1ccc(CNc2ncccc2[N+](=O)[O-])cc1
    4.6, 23.0, 3.8, 10.9, 16.7, 3740, /
COCc1ccc(C(=O)N2CCCC(N(C)CCc3ccc(OC)c(OC)c3)C2)s1 (configuration not stated)
    0.6, -5.5, 13.4, -0.5, 0.4, ?, -9.5
CCN1C(=O)/C(=C/c2ccc(OC)c(OC)c2)N=C1SCC(=O)NCc1ccco1
    3.0, -0.1, 5.3, -4.4, 8.2, 2527, -15.0
Fc1ccc(-n2nnc(-c3cccnc3)n2)cc1
    8.6, -5.1, 15.5, 8.1, -7.5, 3024, -45.4
Cc1cc(C(=O)COC(=O)CN=C2NS(=O)(=O)c3ccccc32)c(C)n1CCc1ccc(Cl)cc1
    4.4, 0.1, 4.3, 10.2, 11.1, 10466, -12.3
Cc1ccc2c(c1)N(CC(=O)N1CCCCC1c1cccnc1)C(=O)CO2 (configuration not stated)
    0.4, 6.3, -15.0, 9.3, -3.6, 11739, 6.4
CC(=O)Nc1nc(C(F)(F)F)cs1
    -0.1, 1.3, 2.6, 5.2, 4.6, 8937, -14.7
CCc1ccc(/C=N/NC(=O)c2nnn(-c3nonc3N)c2CN2CCc3ccccc32)cc1
    /, 6.6, /, /, /, 5174, -4.8
Cc1ccc(S(=O)(=O)NN=C(c2ccccc2)C2CC2)cc1
    1.2, /, -1.1, 6.9, -1.4, /, /

# Next part; it opens with the 2 that closed the last part.
# The line under a structure holds: Sa RN4220 lethal, BJeLR lethal, Mtb hypoxia rep, Mtb hypoxia rep growth, Sa ugtP lethal, Autofluor counter, PrP 5UTR inh
CCc1ccc(/C=N/NC(=O)c2nnn(-c3nonc3N)c2CN2CCc3ccccc32)cc1
    /, 6.6, /, /, /, 5174, -4.8
Cc1ccc(S(=O)(=O)NN=C(c2ccccc2)C2CC2)cc1
    1.2, /, -1.1, 6.9, -1.4, /, /
Cc1ccccc1-n1nc(SCC(=O)O)sc1=S
    4.0, 3.5, 10.3, 6.3, 4.0, 4227, -31.8
Cc1ccc(C)c(S(=O)(=O)N2CCN(c3ncccn3)CC2)c1
    7.6, 16.6, -8.0, -6.6, 11.0, 4536, -11.8
NS(=O)(=O)c1cccc(NC(=O)CN2C(=O)C(=O)N(Cc3ccccc3)C2=O)c1
    -0.3, /, 4.0, 7.5, 4.0, 3238, -2.4
CCCc1nnc(NC(=O)COc2ccc3c(c2)OCO3)s1
    6.5, -7.8, -3.6, -5.3, 6.3, 3712, -22.1
CCOc1ccc(C2C(C(=O)c3ccc(C)o3)=C(O)C(=O)N2CCCN(CC)CC)cc1 (configuration not stated)
    0.2, 4.0, -0.5, -1.2, 1.0, 4168, -14.4
COc1ccc(CC(NC(C)=O)C(=O)NC2CCN(S(=O)(=O)c3ccccc3)CC2)cc1OC (configuration not stated)
    1.6, 0.6, -0.7, 0.5, 5.8, 8100, -10.5
COc1ccc(N2CCN(C(=O)c3ccccc3Br)CC2)c([N+](=O)[O-])c1
    4.0, 6.0, 8.8, 11.6, 3.4, 3520, -14.5
O=C(Nc1nnc(-c2ccccc2)o1)c1cc(Cl)sc1Cl
    /, 6.0, /, /, /, 2109, -21.7
CCOc1ccccc1/C=C(\C#N)C(=O)Nc1cccc(C(=O)O)c1
    4.5, 4.8, 12.2, 4.8, 2.8, 5119, 6.5
COc1ccc(NC(=O)CN(c2ccc(OC)c(Cl)c2)S(=O)(=O)c2ccccc2)cc1
    2.7, -3.9, -2.6, 0.5, 7.0, 4027, -11.7
CCN(CC)C(=O)CSc1nc2c(sc(=S)n2-c2ccccc2)c(=O)n1Cc1ccco1
    -1.7, -4.0, -13.4, 15.4, -18.9, 21125*, -19.7
O=C(c1ccccc1NS(=O)(=O)c1ccc(Br)s1)N1CCCC1
    15.1, 1.3, /, /, 9.5, 3603, -11.1
CCCCCCC(=O)N/N=C1\CCCc2ccccc21
    /, -6.2, /, /, /, 10202, -10.5
NC(=O)c1ccc(OCc2ccccc2)nc1
    -0.4, /, 12.1, 9.4, 3.4, 3239, -39.2
COc1cc(N2C(=O)c3ccccc3C2=O)c(Cl)cc1C(=O)OCC(=O)N(C)C
    0.9, 5.6, 1.7, -5.4, 5.4, 4524, -11.1
CN=C1SC(CC(=O)Nc2cc(Cl)ccc2Cl)C(=O)N1C (configuration not stated)
    2.3, 6.1, 4.9, 4.8, 2.1, 21833*, -9.8
Cc1cc(O)c2/c(=N\N)c(-c3csc(C)n3)coc2c1
    /, 5.6, /, /, /, 6186, 0.0
COc1cccc(C=c2sc(=CC(=O)C(C)(C)C)[nH]c2=O)c1
    -5.1, /, -16.3, -12.3, -0.1, /, /
O=Cc1cn(-c2ccccc2)nc1-c1ccc2c(c1)OCCO2
    24.3, /, 4.5, 12.7, -1.3, 3093, -89.7
CCOC(=O)Cc1csc(NC(=O)CCCC(=O)O)n1
    5.6, -6.6, -14.4, -9.3, 3.7, 4590, /
Cc1ccc(C)c(NC(=O)COC(=O)CCC(=O)c2cccs2)c1
    1.1, -4.4, -11.2, 3.4, 2.5, 4560, 2.7
COc1cccc(-c2ccc(SCC(=O)c3ccccc3)nn2)c1
    8.2, 9.4, -1.1, 8.5, 2.0, 4809, -14.7
COC(=O)C1CC(=O)N(c2ccc(OCc3ccccc3Cl)cc2)C1 (configuration not stated)
    2.6, 0.7, 16.1, 19.0, 9.0, 4086, -22.8
COc1cc2c(=O)n(Cc3ccco3)c(=O)n(CC(=O)c3ccc(Br)cc3)c2cc1OC
    1.1, -3.7, /, /, 4.6, 2682, 4.6
COc1ccc(S(=O)(=O)N2CCCCC2)cc1NC(=O)C1CSC2(C)CCC(=O)N12 (configuration not stated)
    4.7, 0.9, 11.4, 6.3, 12.4, 6772, -19.1
N#C/C(C(=O)NCc1ccccc1)=C1/N=C(NC(=O)c2cccs2)c2ccccc21
    6.0, 9.6, 10.9, 3.6, -7.0, 2308, -24.5
N#Cc1cc(Br)ccc1N=C1CCCN1c1ccccc1
    3.4, -1.6, 7.3, 5.4, 4.4, 10745, -15.8
CCOC(=O)N1CCN(C(=O)c2ccc(Cn3c(=S)[nH]c4cc(C(=O)OC)ccc4c3=O)cc2)CC1
    5.8, 8.5, -4.3, 0.1, -5.3, 5980, -9.2
COC(=O)c1c(NC(=O)C2CC2)sc2c1CCCC2
    10.7, 3.9, 7.1, 7.5, 9.8, 5250, -13.9
CCCCn1c(O)c(C(CC)=Nc2ccc(OCC)cc2)c(=O)[nH]c1=O
    4.9, 0.1, 3.8, 13.2, 21.4, 16712*, 3.3
COc1cccc(CNC(=O)CN2C(=O)CCSc3ccc(S(=O)(=O)N4CCCC4)cc32)c1
    2.6, 0.7, 3.7, -1.8, 5.9, 4127, 11.7
Cc1cc2ncn(N=Cc3ccc(-c4ccccc4)o3)c2cc1C
    -3.6, /, -0.1, -1.3, -14.0, /, /
O=C(N/N=C/C=C/c1ccco1)c1cccs1
    /, 6.2, /, /, /, 4244, -60.8
COc1ccc(NC(=O)N(C)CC2Oc3ccc(NC(=O)c4ccncc4)cc3C(=O)N(C(C)CO)CC2C)cc1 (configuration not stated)
    4.2, /, 15.4, 11.4, 0.5, /, /
CCCNc1c(N)c(=O)oc2ccccc12
    7.1, 1.5, 3.6, 4.8, 3.9, 9126, -22.5

# Profiles, looked up by structure. Order of screens: Sa RN4220 lethal	BJeLR lethal	Mtb hypoxia rep	Mtb hypoxia rep growth	Sa ugtP lethal	Autofluor counter	PrP 5UTR inh
# Cc1cc2ncn(N=Cc3ccc(-c4ccccc4)o3)c2cc1C in the list: -3.6	/	-0.1	-1.3	-14.0	/	/
# CCOC(=O)N1CCN(C(=O)c2ccc(Cn3c(=S)[nH]c4cc(C(=O)OC)ccc4c3=O)cc2)CC1 in the list: 5.8	8.5	-4.3	0.1	-5.3	5980	-9.2
